Assay outcomes as filed in PubChem.
Ecoli growth: E. coli growth inhibition, primary screen, OD600; Escherichia coli growth, 23 h; hits give low values; OD600 absorbance (concentration not given with the values); hit rate 0.21% among 330,000;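 active = OD600 absorbance below the run mean of sample wells minus 3.6 SD, in any replicate, cut at about 0.56 in these data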;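 also: stock transfer was 300 nL into about 60 µL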
RanGTP-Imp inh: inhibitors of RanGTP-importin-beta interaction, primary screen, biochemical, FRET, CFP-Ran, YFP-importin-beta, homogeneous | Ran GTPase (GTP-bound) - importin-beta complex | cell-free CFP-Ran/YFP-importin-beta FRET ratio | inhibition, % (no concentration beside the values) | hit rate 1.1% among 300,000;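 active = most replicates above 15%; inconclusive = exactly half above 15%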;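 also: 0% = DMSO wells and 100% = Ran loaded with GDP instead of GTP; wells of about 40 µL received 100 nL stock; the first replicate is given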
Vif A3G: inhibitors of Vif binding to APOBEC3G peptide, primary screen, biochemical, TR-FRET, GST-Vif 1-94, biotin-A3G peptide, dose response retest (AID 1117319); one-dose inhibition, %; IC50 in µM for titrated hits; Virion infectivity factor (Human immunodeficiency virus type 1 group M subtype B (isolate …; hit rate 0.57% among 260,000; TR-FRET GST-Vif / biotin-A3G peptide binding; higher % means a stronger effect; test concentration not given here; strong numbers were not always called active;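 active = above the screen mean plus three standard deviations and confirmed in dose response; inconclusive = results disagree or hit not tested in dose response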;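 also: Vif residues 1-94 fused to GST binding biotinylated APOBEC3G peptide 110-148; 0% = full assay without inhibitor and 100% = GST in place of GST-Vif; retest series ran down from 100 µM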
FGF22 binding: binders of human FGF22 protein, primary screen, FGF22 synaptogenesis inhibitor project, biophysical, thermal shift, single point; calls only at 9.99 µM; hit rate 1.5% among 340,000; recombinant FGF22 thermal shift, SYPRO orange fluorescence; percent of sucrose octasulfate shift, DMSO zero; Fibroblast growth factor 22 (Homo sapiens), Q9HCT0;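 active = melting point raised past a set limit in the mean and every replicate; inconclusive = no clear call; three in four hits are not shown here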
Target sequence (Q9HCT0 whole entry, looked up): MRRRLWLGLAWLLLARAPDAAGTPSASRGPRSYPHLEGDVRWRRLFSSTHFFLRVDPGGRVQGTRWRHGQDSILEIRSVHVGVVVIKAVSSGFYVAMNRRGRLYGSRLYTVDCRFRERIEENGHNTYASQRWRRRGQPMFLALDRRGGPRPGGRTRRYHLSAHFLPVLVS
AF4-AF9 inh: inhibitors of AF4 peptide binding to AF9, primary screen, biochemical, AlphaScreen, biotin-AF4 peptide, FLAG-AF9, single point; Protein AF-9 (Homo sapiens), P42568; inhibition, % at 10 µM; hit rate 0.47% among 350,000; AID 651704, 2012;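 active = every replicate reaching a set inhibition limit, whatever the replicate mean, cut at about 25% in these data; inconclusive = mean inhibition reaches that limit but some replicates miss it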;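 also: 0% = plate neutral control median and 100% = total signal loss; the record names both 10 and 1 µM as test concentration; the first replicate is given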
Target sequence (P42568 whole entry, looked up): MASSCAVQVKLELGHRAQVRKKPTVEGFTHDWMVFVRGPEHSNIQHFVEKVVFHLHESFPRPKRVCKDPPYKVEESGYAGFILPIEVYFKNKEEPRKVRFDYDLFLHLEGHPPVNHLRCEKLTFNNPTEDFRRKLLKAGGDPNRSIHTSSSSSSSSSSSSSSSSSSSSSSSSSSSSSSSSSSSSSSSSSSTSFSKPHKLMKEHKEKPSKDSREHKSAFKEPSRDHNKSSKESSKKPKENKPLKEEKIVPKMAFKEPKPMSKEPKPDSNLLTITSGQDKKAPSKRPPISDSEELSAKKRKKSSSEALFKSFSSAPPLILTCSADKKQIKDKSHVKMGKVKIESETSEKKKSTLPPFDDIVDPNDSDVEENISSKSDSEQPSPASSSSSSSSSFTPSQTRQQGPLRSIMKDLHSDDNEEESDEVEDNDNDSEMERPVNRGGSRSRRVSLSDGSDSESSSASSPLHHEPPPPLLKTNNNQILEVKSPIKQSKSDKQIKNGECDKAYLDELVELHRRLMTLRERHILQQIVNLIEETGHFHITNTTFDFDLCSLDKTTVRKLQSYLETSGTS
UCH37 DUB inh: inhibitors of human UCH37 deubiquitinase, primary screen, biochemical, Ub-AMC cleavage, fluorescence | Ubiquitin carboxyl-terminal hydrolase isozyme L5 (Homo sapiens), Q9Y5K5 | purified proteasome/UCH37 | inhibition, % (test concentration not listed) | hit rate 0.33% among 330,000;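 active = mean of two replicates above 20%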;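 also: 0% = compound-free wells with enzyme and 100% = wells lacking proteasome; stock transfer was 100 nL into about 20 µL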
Target sequence (Q9Y5K5 whole entry, looked up): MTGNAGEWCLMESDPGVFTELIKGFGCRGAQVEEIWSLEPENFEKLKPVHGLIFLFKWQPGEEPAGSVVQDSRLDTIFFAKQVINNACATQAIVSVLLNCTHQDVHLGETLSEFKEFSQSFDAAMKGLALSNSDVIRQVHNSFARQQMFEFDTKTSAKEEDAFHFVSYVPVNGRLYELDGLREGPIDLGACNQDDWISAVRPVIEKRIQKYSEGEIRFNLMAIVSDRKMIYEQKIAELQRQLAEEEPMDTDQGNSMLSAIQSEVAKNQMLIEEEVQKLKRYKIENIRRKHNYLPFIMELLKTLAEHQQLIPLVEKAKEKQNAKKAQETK
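Signal – fluorescence, ex 355 nm, em 460 nm · System – Proteasome-bound UCH37 · Input – 0.15 nM proteasome as dispensed · Timing – 30 min preincubation with enzyme, 25 min cleavage at room temperature · Read-out basis – percent inhibition of cleavage signal versus uninhibited and no-proteasome wells · Medium – Tris-HCl pH 7.4 with ATP-MgCl2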
HNF4A DNA FP: change in binding of human HNF4A to DNA, primary screen, biochemical, fluorescence polarization, FITC-DNA; 1 h; Hepatocyte nuclear factor 4-alpha (Homo sapiens), P41235; hit rate 0.3% among 360,000; AID 1224865, 2016; activity change, % at 10 µM; in the data active = activity change above about 30%, passing the limit was not always enough;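 also: controls were the assay level and a saturating level of protein; the project sought stronger binding though the title names inhibitors; some compounds called inactive have numbers as strong as hits; positive values seem to mean higher polarization but the record does not say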
Starred values were filed as active, the others as inactive; i = inactive; ? = inconclusive; · = not tested or not shown; & = joins results of further samples. A portion of the library; count on the stated rates, not on these rows.

SMILES | Ecoli growth | RanGTP-Imp inh | Vif A3G | FGF22 binding | AF4-AF9 inh | UCH37 DUB inh | HNF4A DNA FP
Cc1ccc(NP(=O)(c2ccc(N(C)C)cc2NC(=O)c2cccs2)N2CCOCC2)cc1Cl (stereo unspecified) | 0.709 | 0.0 | · | · | · | 0.1 | -2.0
CC(C)CCN1CCN(CCCc2ccccc2)CC1CCO (stereo unspecified) | 0.68 | 6.9 | · | i | 1.9 | 3.9 | -4.1
OC(COc1ccc2cc(Br)ccc2c1)Cn1ccnc1 (stereo unspecified) | 0.672 | -1.4 | -18.9% | i | 0.2 | 0.9 | 0.6
COC(=O)c1ccccc1NC(=O)C1CCN(C(=O)c2ccc(OC)cc2)CC1 | 0.672 | 3.5 | -7.4% | · | · | -2.7 | -0.8
O=C(CN1CCN(S(=O)(=O)c2cccc(Br)c2)CC1)N1CCCCC1 | 0.72 | · | · | i | 1.1 | 3.2 | 0.5
COc1ccc(Cl)cc1NC(=O)CC(C)=O | 0.703 | 0.2 | 4.2% | · | · | -0.7 | 0.3
Fc1ccccc1OCCCCn1cncn1 | 0.693 | 4.0 | ? | · | · | -0.2 | 0.0
Cc1ccc(-n2cc(CN3CCC(O)(c4ccccn4)CC3)c(-c3ccc(F)cc3)n2)cc1 | 0.657 | 2.1 | 3.6% | i | 8.5 | 2.2 | 6.9
COc1ccc(C2=NOC(C(=O)NCc3cccnc3)C2)cc1OC (stereo unspecified) | 0.684 | 1.4 | -6.5% | i | -5.4 | 1.0 | 1.4
COc1ccccc1-n1cc(-c2ccc(Cl)cc2)[nH]c1=O | 0.673 | 2.0 | -0.1% | i | 6.8 | 1.4 | -2.5
O=S1(=O)CC(N2CC=CC2)CN1Cc1cn(Cc2ccc(F)cc2)nn1 (stereo unspecified) | · | · | · | i | 1.7 | · | 4.7
CCN(CC(=O)Nc1c(F)cccc1F)C(=O)CCCN1C(=O)c2ccccc2C1=O | · | · | 0.9% | i | -2.1 | · | -2.4
CC[C@@]1(C(=O)OC)N[C@H](CN(C)C(=O)Nc2ccccc2)[C@@H]2C(=O)N(Cc3ccccc3)C(=O)[C@@H]21 | 0.713 | · | 4.6% | i | -0.4 | 4.1 | -1.0
COCCCNc1ncnc2c1nc1n2CCCC1 | 0.677 | 2.6 | 1.6% | i | 0.8 | -1.2 | 6.6
Cn1nc(C(C)(C)C)cc1N1C(=O)CCC1(C)C(=O)Nc1ccc2c(c1)OCCO2 (stereo unspecified) | · | · | · | i | -0.2 | · | -0.3
CC1CCC(N2CCN(c3ccc([N+](=O)[O-])cc3)CC2)CC1 (stereo unspecified) | 0.591 | 0.7 | 3.7% | i | 7.0 | 11.3 | -4.3
Cc1cc(Cl)c2oc(C(=O)N(C)C3CCOC3)c(C)c2c1 (stereo unspecified) | 0.621 | 3.9 | · | i | 4.7 | 2.3 | -5.9
c1ccc(COc2cccc(-c3cc4nc(NCCN5CCOCC5)ccn4n3)c2)cc1 | · | · | · | i | 2.9 | · | 4.4
CCC(C)NCCOc1cc(C)cc(C)c1C (stereo unspecified) | 0.708 | -0.9 | · | i | 2.5 | 4.6 | -4.5
Clc1ccc(OCc2nn[nH]n2)cc1 | 0.717 | 2.1 | 0.8% | i | -1.2 | 2.6 | -0.5
CC(C)CN(C(=O)c1cccc([N+](=O)[O-])c1)c1c(N)n(CC(C)C)c(=O)[nH]c1=O | 0.709 | ? | · | i | -0.8 | 0.6 | -1.5
OC(c1cccc(CN2CCCCC2)c1)c1ncc(-c2ccccc2Cl)[nH]1 (stereo unspecified) | · | · | · | i | 0.4 | · | -1.4
CCN1CCN(c2nnc(-c3ccc(F)cc3)c3ccccc23)CC1 | 0.65 | -6.3 | · | i | 3.0 | 8.6 | -0.5
O=C(CN(C(=O)CSc1nnc(COc2ccccc2)o1)c1ccc(F)cc1)NC1CCCCC1 | 0.709 | -1.0 | 1.5%&-0.1% | · | · | 0.6 | 3.8
Nc1ccc2c3c(cccc13)-c1ccccc1-2 | 0.651 | · | -3.6% | i | -20.1 | 0.5 | -105.4

Next structures follow.
SMILES | Ecoli growth | RanGTP-Imp inh | Vif A3G | FGF22 binding | AF4-AF9 inh | UCH37 DUB inh | HNF4A DNA FP
CCc1cc(Br)ccc1NC(=O)C1CCCO1 (stereo unspecified) | 0.65 | -1.1 | 0.1% | · | · | 1.3 | -5.0
CCCCn1c(N)c(N(CC(C)C)C(=O)c2cc3c(s2)CCC3)c(=O)[nH]c1=O | 0.693 | -2.4 | 10.2% | · | · | 4.4 | 0.7
Cc1ccc(S(=O)(=O)N2CCCC2CNC(=O)c2ccccc2)cc1 (stereo unspecified) | 0.693 | 0.3 | -5.4% | i | -1.6 | 4.5 | 3.5
CC(=O)N1CCN(c2ccc(NC(=S)NC(=O)c3ccccc3)cc2)CC1 | 0.715 | -1.4 | 17.1% | · | · | 2.0 | -3.7
O=C(CCc1nc2sc3c(c2c(=O)[nH]1)CCCC3)NCCc1ccc(F)cc1 | 0.691 | 1.8 | · | i | -1.3 | 0.5 | 2.8
Cc1ccc(CNC(=O)C(=O)NCC2OCCN2S(=O)(=O)c2ccc(Br)cc2)cc1 (stereo unspecified) | 0.689 | 2.7 | 5.0% | i | -15.1 | 0.4 | 3.5
O=C1CCN(C(=O)c2ccc(Cl)cc2)N1 | 0.693 | 3.1 | 17.9% | i | -2.0 | -1.1 | 0.7
Cc1cc(NS(=O)(=O)c2c(C(=O)N3CCOCC3)c(C)n(C)c2C)ccc1Br | 0.665 | -1.9 | · | i | 5.0 | -1.0 | 3.2
CC(/C=N/NC(=O)c1cc(-c2ccncc2)nc2ccccc12)=C\c1ccco1 | · | 1.0 | 29.5% | · | · | · | -2.6
CCOC(=O)C1CCCN(C(=O)Cc2ccc(OC)c(OC)c2)CC1 (stereo unspecified) | · | · | · | i | -3.3 | · | 0.2
CN(C)S(=O)(=O)N1CCN(C(=O)c2ccccc2)CC1 | 0.669 | 1.2 | ? | · | · | -0.3 | 1.5
COc1ccc(OC(C)C(=O)NC2CCCCCCC2)cc1 (stereo unspecified) | 0.643 | 2.9 | -5.9% | i | 0.0 | 2.7 | -0.5
CCN(CC)CCCNC(=O)Cn1nc([N+](=O)[O-])c(Cl)c1C | 0.699 | 2.7 | 15.3% | i | -1.2 | -0.1 | 3.5
CCN(CC)CCn1c(=N)n(CCO)c2ccccc21 | 0.785 | 0.1 | 32.1% | · | · | 0.9 | 0.7
CC(=O)NN1C(=O)/C(=C\c2ccc(Br)o2)SC1=S | 0.728 | -4.6 | 5.73µM* | i | -0.7 | 7.2 | 95.1
CCOC(=O)c1c(C)[nH]c(C(C)=NNC(=O)c2cccs2)c1C | 0.71 | · | · | i | 2.8 | -75.6 | 3.7
Cc1ccc(C(=O)N/C(=C\c2cn(-c3ccccc3)nc2-c2ccccc2)C(=O)N2CCOCC2)cc1 | 0.704 | 7.3 | -0.4% | · | · | -4.2 | -3.5
O=C(c1ccccc1Cl)N1CCN(C(=O)C2CCCO2)CC1 (stereo unspecified) | 0.642 | · | -2.7% | i | -26.2 | -0.6 | -5.3
CC(C)CC(OC(=O)c1cccs1)C(=O)NCC1CCCO1 (stereo unspecified) | 0.686 | -0.3 | -3.4% | · | · | 1.6 | -0.8
CN(C)c1cccc(C(=O)NN2C(=O)NC3(CCCCC3)C2=O)c1 | 0.66 | · | -5.3% | i | 1.6 | -1.7 | -1.0
O=C(NC1=NCCS1)c1ccc2c(c1)C(=O)N(Cc1ccco1)C2=O | 0.723 | 2.0 | 9.7% | i | -121.1 | 1.9 | -0.8
Cc1ccc(S(=O)(=O)Cc2ccc(C(=O)OCc3ccccc3)cc2)cc1 | 0.754 | -3.3 | -0.5% | · | · | 2.3 | -2.5
COC(=O)c1ccc(N/N=C/c2cc([N+](=O)[O-])cc(OC)c2O)cc1 | · | 0.9 | 5.1% | · | -0.9 | · | -0.9
CCOC(=O)C1CCN(C(=O)CCNS(=O)(=O)c2cc(Br)cnc2N)CC1 | 0.712 | -1.6 | -5.0% | i | -3.1 | -7.3 | 0.7
CCOc1ccccc1NC(=O)c1cccc2c1C(=O)N(CCOC)C2 | 0.792 | -3.3 | -1.7% | i | -6.4 | 5.5 | 3.2

Continuation.
SMILES | Ecoli growth | RanGTP-Imp inh | Vif A3G | FGF22 binding | AF4-AF9 inh | UCH37 DUB inh | HNF4A DNA FP
CCCc1cc(=O)oc2cc(OCC(=O)N3CCOCC3)c(Cl)cc12 | 0.685 | 3.0 | · | i | 1.5 | -13.7 | 4.1
O=C(NCc1ccccc1)NC1(C(=O)Nc2ccc3c(c2)OCCO3)CCCCC1 | 0.728 | -0.4 | -3.8% | · | · | -2.2 | -0.2
O=C(NCc1ccccc1)C(c1cccnc1)N(C(=O)c1ccccn1)c1ccc(F)cc1 (stereo unspecified) | 0.696 | 2.2 | · | i | 0.0 | 1.1 | 2.6
Cc1ccc(S(=O)(=O)N2CCN(S(=O)(=O)c3ccc4c(c3)OCCO4)CC2)cc1 | 0.686 | 0.0 | 5.3%&-4.6% | · | · | 1.5 | 0.9
CCOc1ccc(-c2nnc(-c3ccccc3)n2-c2ccccc2)cc1 | 0.662 | 8.9 | 0.2% | · | · | 1.3 | 0.6
CCCOc1ccc(C(=O)NNC(=S)NC(=O)c2cccs2)cc1 | · | 2.6 | · | i | 2.3 | · | -2.1
NC(N)=NC(N)=Nc1ccc(SC(F)(F)F)cc1 | 0.65 | 2.8 | · | i | 0.6 | 3.7 | -0.8
CCOC(=O)C1=C(C)N(C)C(=O)NC1c1c(O)ccc2ccccc12 (stereo unspecified) | 0.685 | -0.1 | 2.7% | i | -3.6 | 5.0 | 1.3
CC1CCN(C(=O)c2cccc(NC(=O)c3cccs3)c2)CC1 | 0.701 | -1.3 | · | i | -2.6 | -0.2 | -2.1
C=Cc1ccc(Cn2nc(-c3ccccc3)ccc2=O)cc1 | 0.648 | ? | 5.0% | i | 4.9 | 4.2 | -1.1
Cc1ccc(NC(=O)C2CCCN(C(=O)c3ccc(Cl)cc3)C2)cc1S(=O)(=O)N1CCOCC1 (stereo unspecified) | · | -1.7 | · | · | 0.6 | · | 0.1
CCc1nc(NCC2CCCO2)c2oc3ccccc3c2n1 (stereo unspecified) | 0.679 | 1.4 | -7.9% | · | · | 2.8 | -2.4
c1ccc(CNc2ncnc3sccc23)cc1 | 0.684 | -0.2 | · | i | -3.5 | 2.0 | 7.3
O=C(Nc1ccccc1F)NC1CC1 | 0.672 | -2.6 | -7.9% | i | -1.6 | -0.7 | 1.2
O=c1c2nncn2c2cccnc2n1CCNc1ncc(C(F)(F)F)cc1Cl | 0.683 | -0.8 | 12.1% | i | -43.7 | 5.6 | 4.0
CSc1ccc(S(=O)(=O)NCC(=O)OCC(=O)N2CCC(C)CC2)cc1[N+](=O)[O-] | 0.685 | · | -2.8% | i | -3.6 | 3.1 | 3.1
CCOC(=O)CC(=O)CSc1ncnc2c1cnn2-c1ccccc1 | 0.716 | -5.5 | 7.2% | · | · | 3.1 | 0.1
O=C(COC(=O)c1cnc(Cl)c(Cl)c1)Nc1ccc(S(=O)(=O)N2CCCC2)cc1 | 0.682 | -2.1 | 6.0% | i | 0.5 | 1.9 | 1.1
